High-throughput results deposited in PubChem BioAssay by several laboratories.
PrP 5UTR inh: inhibition of PrP 5' UTR reporter expression; AID 488862; cell-based PrP 5' UTR mRNA reporter, plate reader; inhibition, % (test concentration not listed); 340,000 compounds, 0.35% hits;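 active means every replicate at 50% or more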;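 further: 0 = median of the neutral control wells; tested in H4 reporter cells; numbers are from one replicate; inactives centre near -14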
Mtb hypoxia inh: reduces hypoxia-regulated biosensor signal in M. tuberculosis; fluorescence inhibition, % (no concentration beside the values); AID 1159583; M. tuberculosis hypoxia-regulated fluorescent reporter, fluorescence; 300,000 compounds, 0.1% hits;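 active means 35 to 45% if threefold the growth effect, above 45% if 1.5-fold the growth effect; inactive means the rest, general growth blockers included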;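 further: wells of about 50 µL received 100 nL stock; 0% = vehicle wells and 100% = reference inhibitor wells; whole bacteria with a GFP reporter of the hypoxia response; strong numbers were not always called active; many hits fall short of the cut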
Autofluor counter: counter-screen for toxin protease inhibitors: compound fluorescence; compound autofluorescence counterscreen, microsphere flow cytometry; hits give high values; fluorescence intensity (test concentration not listed); 360,000 compounds, 3.1% hits;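 active means at least 3 SD above the mean of all compounds, about 16000 in these data; inconclusive means too few beads counted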;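 further: 100 nL of 1 mM stock went into each well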
ugtP null kill: growth inhibition of S. aureus ugtP deletion strain; S. aureus RN4220 ugtP deletion, OD600 growth, 16 h; some inactives read as strong as hits; 330,000 compounds, 0.54% hits; growth inhibition, % (no concentration beside the values);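 active means z-score under -3 and OD600 up to 0.15 on both plates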;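 further: plate controls were untreated wells for no effect and antibiotic for full effect; wells of about 80 µL received 100 nL stock; the first replicate is given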
RN4220 kill: kills Staphylococcus aureus RN4220; S. aureus RN4220 growth, OD600, 16 h; inhibition, % (test concentration not listed); 330,000 compounds, 0.33% hits;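 active means z-score of -3 or lower and OD600 up to 0.18 on both plates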;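 further: plate controls were untreated cells for no effect and reference antibiotic for full effect; stock transfer was 100 nL into about 80 µL; one replicate is shown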
BJeLR lethal: kills HRASV12-expressing BJeLR cells; 300,000 compounds, 0.17% hits; inhibition, % (test concentration not listed); BJeLR (HRASV12) viability, CellTiter-Glo ATP luminescence, 48 h; reference of the scale not given here;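 active means replicate mean above 50%; inconclusive means above 50% but judged a plate artefact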;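 further: 50 nL library stock added to about 25 µL; numbers are from one replicate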
Mtb hypoxia inh growth: also measured in Mtb hypoxia inh; calls as there; growth inhibition, %; measured here: M. tuberculosis growth (absorbance);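 0% = vehicle and 100% = reference antibiotic; read after six days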
The depositor's hits bear a star; ? = inconclusive; . = not tested or not shown.

SMILES	PrP 5UTR inh	Mtb hypoxia inh	Mtb hypoxia inh growth	Autofluor counter	ugtP null kill	RN4220 kill	BJeLR lethal
CC(=O)Nc1ccccc1-c1nc2ccc(C(=O)N3CCN(c4ccccc4)CC3)cc2[nH]c1=O	-6	-2	4	4402	7	0.9	-8
Cc1nnc(NC(=O)c2ccc3ccccc3c2)s1	-47	7	7	5958	-1	0.6	7
Cc1nc(N2CCN(S(=O)(=O)c3ccccc3C#N)CC2)c2c(-c3cccs3)csc2n1	-21	9	7	4324	8	6.7	18
Cc1nc2ccccc2n1C(C)c1ccccc1 (configuration not stated)	-24	5	11	3867	7	4.8	-17
COc1ccc(NC(=O)CSc2nnc(NC(=O)c3ccc(S(=O)(=O)N4CCOCC4)cc3)s2)cc1	-14	4	-2	7681	-3	2.6	-3
Cc1ccc(C)c2nc(SCC(=O)N3CCCc4ccccc43)c(C#N)cc12	-23	5	3	4380	0	2.7	0
CCCCN(CCCC)C(=O)CN(C)S(=O)(=O)c1ccc2c(c1)n(C)c(=O)c(=O)n2C	-18	3	5	7908	2	4.5	8
Cc1ccc(S(=O)(=O)/N=C(/Nc2nc(C)cs2)c2ccccc2)cc1	-14	14	10	3948	15	0.2	.
O=C(N/N=C1\CC2CC=CC12)c1ccc(O)cc1 (configuration not stated)	2	.	.	3509	.	.	-3
Cc1ccc(C)c(C(=O)COC(=O)c2nn(C)c(=O)c3ccccc23)c1	-10	-2	-2	4114	9	3.5	.
COc1ccc(NC(=O)/C=C/c2ccc(S(=O)(=O)N3CCOCC3)cc2)cc1	.	4	3	?	5	2.1	.
COC(=O)C1=C(N)OC2=C(C(=O)CCC2)C1c1ccccc1OC (configuration not stated)	-14	8	6	5263	2	3.2	6
CCSc1ncc(/C=N/Nc2ccccc2)n1C	-47	.	.	2996	.	.	-4
[N-]=[N+]=NC(c1ccccc1)c1nc2ccccc2[nH]c1=O (configuration not stated)	-11	6	-1	3726	4	8.5	2
COc1ccc(C(=O)CC(=O)C(=O)Nc2ccc(C)c(C)c2)cc1	-9	-7	-3	3559	3	4.7	0
C=CCN(CC=C)C(=S)Nc1ccc(OC)c(OC)c1	-24	-7	8	3284	-11	-1.9	2
CC(C(=O)NC1CCCC1)N(Cc1ccc2c(c1)OCO2)C(=O)c1snc(C(N)=O)c1N (configuration not stated)	-27	8	10	9326	6	2.8	-5
O=C(CNC(=O)c1cccs1)c1ccc(F)cc1	-38	15	9	8538	7	5.6	-12
O=C(c1ccc2[nH]c3c(c2c1)CCCC3)N1CCN(c2ccc(F)cc2)CC1	-16	.	.	2061	.	.	-8
COCc1c(C(=O)OCc2nc(N)nc(Nc3ccccc3C)n2)oc2ccccc12	-24	8	8	4073	0	3.7	4
C/C(=N/NC(=O)C(O)(c1ccccc1)c1ccccc1)c1ccc([N+](=O)[O-])o1	-21	.	.	3860	.	.	0
COC(=O)[C@H](C)NC(=O)COc1ccccc1	-13	1	1	10333	0	1.7	-4
C=CCSc1nnc(-c2ccc(Cl)cc2Cl)o1	-112	22	22	17125*	7	13	4
O=C(COc1ccccc1F)NC1CC1	3	7	3	9305	7	5.8	-3
CCc1nnc(NC(=O)C2=CCN(S(=O)(=O)c3ccccc3)CC2)s1	-29	-6	-5	4749	-8	-0.8	-1
COc1ccc(C)cc1NC(=O)Cn1cnnn1	-12	10	8	3117	-5	-1.7	-4
N=c1c(-c2nc3ccccc3[nH]2)cc(C(=O)c2ccco2)nn1-c1ccccc1	1	-4	6	2071	2	-2.4	2
CC(NCc1ccc(-c2ccccc2)cc1)C(O)c1ccccc1 (configuration not stated)	-19	11	4	2191	2	0.2	16
CS(=O)(=O)N1CC(C(=O)NN)Oc2ccc(Cl)cc21 (configuration not stated)	-19	4	6	4469	4	-0.3	-7
CC(C)=CCCC1(C)C=Cc2c(c(C)cc3c2[nH]c2cc(O)ccc23)O1 (configuration not stated)	-54	.	.	5169	101*	90	-5
CCOc1ccc(N(CC(=O)NC2CCCCC2)S(=O)(=O)c2ccccc2)cc1	2	1	0	4919	6	5.2	-3
O=C(CCc1nc2ccccc2c(=O)[nH]1)N1CCN(S(=O)(=O)c2cccc(F)c2)CC1	-20	2	5	5722	4	-1.4	-6
Cc1cc(C)n(C(C)CNS(=O)(=O)c2ccccc2)n1 (configuration not stated)	-22	10	6	5298	1	7.3	-2
C/C(N)=C(/C#N)C(=O)COC(=O)CNC(=O)c1ccc(Cl)cc1Cl	-23	7	6	4156	-5	2.2	13
O=C(NCc1cccs1)c1noc2c1CCCC2	-48	9	12	11822	0	2.4	0
COCCn1ccc2c(OCC(=O)Nc3cc(OC)ccc3OC)cccc2c1=O	-6	2	-1	4049	-3	2.2	-1
Cc1ccc(NC(=O)C2Cc3ccccc3OC2=NO)cc1C (configuration not stated)	.	5	-2	.	-4	2.0	.
Cc1ccc(NC(=O)COC(=O)c2ccc(S(=O)(=O)N3CCCC3)cc2)cc1	2	-5	6	5993	0	-1.8	.
COC(=O)CSc1nnc(CNc2ccc(Cl)cc2)n1-c1ccccc1	-12	-4	6	3912	-5	-4.3	-2
Cc1noc(C)c1NC(=O)N(C)C[C@H]1Oc2ccc(NC(=O)C3CC3)cc2C(=O)N([C@H](C)CO)C[C@@H]1C	3	-7	-4	4169	-2	-3.7	.
Nc1cnccc1Oc1cccc(C(F)(F)F)c1	-31	-2	6	6091	1	2.7	-3
Cc1ccccc1-c1nc(SCc2ccccn2)c2c(=O)n(C)c(=O)n(C)c2n1	-5	12	5	3759	8	-1.9	-16
COc1ccc(NC(=O)C2=Cc3ccccc3OC2)cc1	-6	14	5	4624	0	-0.5	9
CC(NC(=O)c1ccc(Cl)cc1)c1nnc(SCC(=O)NC2=NCCS2)n1C (configuration not stated)	-2	1	-8	4877	6	1.9	2
NCCCC[C@H](NC(=O)C1CCNCC1)c1nnc([C@@H](N)CO)o1	-18	.	.	3390	.	.	-2
CC1Cc2ccccc2N1C(=O)CNc1ccccc1N1CCCCC1 (configuration not stated)	-17	14	-1	4431	-5	66	2
Cc1ccc(OCCN2C(=O)c3ccccc3C2=O)c([N+](=O)[O-])c1	-29	-14	0	2510	-9	3.5	-4
Cc1cc(C(=O)CSc2nc(N)cc(N)n2)c(C)n1-c1cccc(C(F)(F)F)c1	-9	17	8	2599	19	6.4	-4
Cc1ccc(CCc2nnc(SCC(=O)Nc3ccccc3Cl)n2-c2ccccc2)o1	-9	-1	7	2499	-3	10	3
Cc1ccc(C)c(NC(=O)c2ccc(N(C)S(C)(=O)=O)cc2)c1	-22	4	3	20420*	12	-4.2	6
COc1cccc(OC)c1C(=O)NNC(=O)c1ccc(F)cc1	-6	7	14	3744	5	14	-2
COc1cc(C=NNC(=O)c2ccc(O)cc2)ccc1OCC(=O)N1CC(C)OC(C)C1 (configuration not stated)	.	12	-3	.	2	-0.7	.
CCOC(=O)c1cnn(-c2ccccc2)c1NC(=O)c1ccccc1	-29	7	11	10095	-3	2.6	5
NS(=O)(=O)c1ccc2c(c1)C(=NO)c1cc(S(N)(=O)=O)ccc1-2	-20	6	7	4015	3	3.9	-9
CSc1nnc2c(=O)[nH]c(=O)n(C)c2n1	-32	5	3	2748	5	4.2	.
Cn1nccc1C(=O)N1CCN(c2ccccc2Cl)CC1	-11	17	2	5717	0	3.3	-1
Cc1ccc(CN=c2c([N+](=O)[O-])nn(-c3cccc(Cl)c3)n2O)cc1	-9	10	4	4487	-3	-5.6	5
Cc1nnc(NC(=O)CSc2nccn2Cc2ccc(F)cc2)s1	-2	-17	-1	5712	-4	-0.9	-10
O=C(CSc1nnc(-c2ccoc2)o1)N1CCOCC1	-13	5	10	3667	3	2.8	13
COc1ccc(S(=O)(=O)N2CCOCC2)cc1NC(=O)CSc1ccc(F)cc1	-19	1	0	2807	7	3.4	.

The list continues:
SMILES	PrP 5UTR inh	Mtb hypoxia inh	Mtb hypoxia inh growth	Autofluor counter	ugtP null kill	RN4220 kill	BJeLR lethal
O=C(CNC(=O)c1ccccc1C(=O)O)c1ccccc1	-22	-5	2	22929*	-7	-0.6	19
N#Cc1ccc(C(=O)NC2CCCc3ccccc32)cc1 (configuration not stated)	-18	22	21	2668	4	8.1	5
COC(=O)c1sc(NC(=O)CSc2nncs2)c(C(=O)OC)c1C	-10	.	.	4772	1	2.0	3
Cc1cc(=O)[nH]c(SCC(=O)c2c(N)n(C)c(=O)n(C)c2=O)n1	-12	.	.	3886	3	2.7	-7
Cc1cc(O)c(-c2cc(O)c(C)cc2O)cc1O	-19	16	5	3594	11	6.9	5
O=C(O)C1CC(=O)N(CCc2ccc(F)cc2)C1 (configuration not stated)	4	3	-2	.	4	3.6	12
CC(=O)Nc1ccccc1C(=O)C(=O)Nc1ccc(C(=O)N2CCOCC2)cc1	-43	-3	2	3948	-1	-3.0	7
Cc1nc2ccccc2nc1-c1ccc([N+](=O)[O-])cc1	-35	12	12	3942	-3	1.0	.
CCCCNC(=S)NNC(=O)c1ccoc1C	.	-5	4	10735	8	4.6	-2
CC1CCN(C(=O)c2ccc3c(c2)OCO3)CC1	-5	20	-3	4308	13	4.5	-2
Cn1cnc2cc(OC(=O)c3ccccc3)ccc21	-4	-3	-11	8917	-1	-1.7	-7
Cn1c(N)c(C(=O)COC(=O)Cc2ccc(Cl)cc2Cl)c(=O)n(C)c1=O	-16	0	12	5653	-3	8.8	.
O=C(COc1cccc2ccccc12)N1c2ccccc2CCc2ccccc21	-7	2	-5	3508	19	-10	-18
Cc1ccc(C(C)CCN2CCC(n3nccc3NC(=O)c3ccccc3)CC2)o1 (configuration not stated)	-12	10	6	6228	-2	2.7	2
COc1cc(C(=O)Nc2scc(-c3ccccc3)c2C(=O)O)cc(OC)c1OC	-14	14	5	3550	6	5.0	-10
Clc1ccc2nncn2n1	-20	3	8	1968	0	2.8	-10
COc1ccc(C(CNC(=O)Nc2ccc(Cl)cc2)N2CCN(C)CC2)cc1 (configuration not stated)	8	7	3	5454	-7	-3.3	2
CC1CCCC(NC(=O)COC(=O)CCC(=O)c2ccc(F)cc2)C1C (configuration not stated)	-21	15	2	3746	2	1.6	.
Cc1ccc(-n2ncc3c2CCCC3NC(=O)c2cnccn2)cc1C (configuration not stated)	1	-6	3	6074	-8	-1.3	7
Cn1cnc(S(=O)(=O)N2CCN(C(c3ccc(F)cc3)c3ccc(F)cc3)CC2)c1	-11	9	13	5158	19	-1.4	-1
COc1ccc(CCN(Cc2ccccn2)C(=S)Nc2cccc(SC)c2)cc1OC	-3	2	-2	4413	10	2.9	16
CCS(=O)(=O)c1ccc(-c2csc(-c3ccccc3)n2)c(Cl)c1Cl	-26	.	.	2131	13	0.6	2
O=c1c2[nH]c3cccc(Cl)c3c2ncn1CC1CCCO1 (configuration not stated)	-38	9	16	4300	6	0.7	9
COc1cc(S(=O)(=O)N(Cc2cccc(OC)c2OC)CC2CCCO2)ccc1-n1cnnn1 (configuration not stated)	0	-6	4	3479	8	3.3	6
Cc1ccc(C(=O)COC(=O)CNC(=O)Cc2ccccc2)cc1[N+](=O)[O-]	3	.	.	4246	4	-0.2	-5
O=C(O)CSc1nnc(Cn2c(=O)sc3ccccc32)n1-c1cccc(Cl)c1	-13	5	7	20449*	5	2.7	-3

Some of the entries so far, as a markdown table:
| Molecule | PrP 5UTR inh | Mtb hypoxia inh | Mtb hypoxia inh growth | Autofluor counter | ugtP null kill | RN4220 kill | BJeLR lethal |
| --- | --- | --- | --- | --- | --- | --- | --- |
| CC1CCCC(NC(=O)COC(=O)CCC(=O)c2ccc(F)cc2)C1C (configuration not stated) | -21 | 15 | 2 | 3746 | 2 | 1.6 | . |
| COc1cc(S(=O)(=O)N(Cc2cccc(OC)c2OC)CC2CCCO2)ccc1-n1cnnn1 (configuration not stated) | 0 | -6 | 4 | 3479 | 8 | 3.3 | 6 |
| O=C(O)CSc1nnc(Cn2c(=O)sc3ccccc32)n1-c1cccc(Cl)c1 | -13 | 5 | 7 | 20449* | 5 | 2.7 | -3 |

Reprinted from the entries so far, three compounds:
SMILES	PrP 5UTR inh	Mtb hypoxia inh	Mtb hypoxia inh growth	Autofluor counter	ugtP null kill	RN4220 kill	BJeLR lethal
CC(=O)Nc1ccccc1-c1nc2ccc(C(=O)N3CCN(c4ccccc4)CC3)cc2[nH]c1=O	-6	-2	4	4402	7	0.9	-8
Cc1nnc(NC(=O)c2ccc3ccccc3c2)s1	-47	7	7	5958	-1	0.6	7
Cc1nc(N2CCN(S(=O)(=O)c3ccccc3C#N)CC2)c2c(-c3cccs3)csc2n1	-21	9	7	4324	8	6.7	18
